Compound activity deposited in PubChem by National Center for Advancing Translational Sciences (NCATS).
WRN inhibitor – qHTS for Inhibitors of WRN Helicase. AID 651768, 2012. 360,000 tested, 0.46% active. Potency, µM (doses to about 114 µM), for the others: at the highest dose activity change, negative = inhibition, actives largely listed as inhibitors. Bifunctional 3'-5' exonuclease/ATP-dependent helicase WRN (Homo sapiens), Q14191. WRN helicase unwinding, fluorescent forked duplex, kinetic; note: potency is the fitted concentration of half-maximal effect; % is set by controls: 0 for no effect and ±100 for the full control effect; nearly all actives have a fitted effect of over 55% in size
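Fluorescence dequenching readout, ex 525 nm/em 598 nm, kinetic mode: forked duplex DNA (100 nM final) with adjacent fluorophore and quencher unwound by WRN (20 nM final) with 2 mM ATP. Compound preincubation 15 min, room temperature.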
GLP-1R agonist – qHTS of GLP-1 Receptor Agonists; HEK293 GLP-1R CRE-luciferase, luminescence, 4-6 h; cells express a hypersensitive GLP-1R form; Glucagon-like peptide 1 receptor (Homo sapiens), P43220; AID 624172, 2012; 380,000 tested, 0.007% active; Potency, µM (doses to about 45.6 µM), without a hit: at the top dose activation, hits mostly activators; note: potency is the fitted concentration of half-maximal effect; % of control where 0% means no effect
Target sequence (P43220 whole entry, looked up): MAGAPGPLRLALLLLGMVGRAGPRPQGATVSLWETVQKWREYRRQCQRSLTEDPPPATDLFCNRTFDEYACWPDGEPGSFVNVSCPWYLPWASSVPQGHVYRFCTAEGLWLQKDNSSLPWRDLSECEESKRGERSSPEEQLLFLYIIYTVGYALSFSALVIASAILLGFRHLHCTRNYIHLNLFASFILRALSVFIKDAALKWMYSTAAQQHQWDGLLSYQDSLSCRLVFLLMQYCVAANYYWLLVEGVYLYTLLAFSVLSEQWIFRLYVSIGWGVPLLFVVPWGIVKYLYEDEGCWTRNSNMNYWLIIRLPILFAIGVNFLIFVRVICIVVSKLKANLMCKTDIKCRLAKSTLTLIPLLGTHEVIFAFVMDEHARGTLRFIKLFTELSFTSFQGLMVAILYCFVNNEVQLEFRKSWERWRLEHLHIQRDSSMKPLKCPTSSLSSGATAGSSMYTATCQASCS
PI5P4K alpha inh – qHTS for Inhibitors of phosphatidylinositol 5-phosphate 4-kinase (PI5P4K); max response, %; 330,000 tested, 1.2% active; PI5P4Kalpha enzyme, ADP-Glo luminescence, 60 min; active compounds read low; AID 652105, 2013; active = max response of -50% or lower; inconclusive = between -30% and -50%; inactive = -30% or higher; note: value at the top dose of about 77 µM; % is set by controls: 0 for no effect and ±100 for the full control effect
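Enzyme plus substrate dispensed, test compounds pinned in, then ATP (5 microM final) added. After 60 min at RT, ADP-Glo reagent 1 for 45 min and reagent 2 for 30 min preceded luminescence imaging.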
IL2 activator – qHTS of IL-2 Activators. IL-2 activation reporter assay, cell-based qHTS; stimulated with anti-CD3/CD4/CD28 beads; in transgenic mouse T cells. activation, % (series mostly up to about 46 µM). 360,000 tested, 0.065% active. AID 652025, 2013; in the data active = activation above about 50%; inconclusive = mostly about 30% to 49%; note: 0% is about no effect
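Readout: EGFP and DsRed signals by fluorescent plate cytometry. Unstimulated transgenic mouse T cells received compound 60 min before antibody-bead stimulation, then incubated 18 h at 37 degrees C.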
PLK1 PBD inh – qHTS for Inhibitors of PLK1-PDB (polo-like kinase 1 - polo-box domain): Primary Screen. Serine/threonine-protein kinase PLK1 (Homo sapiens), P53350. Plk1 PBD binding of FITC phosphopeptide, fluorescence polarization. 360,000 tested, 2.8% active. Potency, µM, without a hit: max response, negative = inhibition, hits mostly inhibitors. AID 720504, 2013; note: potency is the fitted concentration of half-maximal effect; series mostly up to about 57 µM; % is set by controls: 0 for no effect and ±100 for the full control effect; nearly all actives have a fitted effect of over 65% in size
Target sequence (P53350 whole entry, looked up, the tested form may be a part): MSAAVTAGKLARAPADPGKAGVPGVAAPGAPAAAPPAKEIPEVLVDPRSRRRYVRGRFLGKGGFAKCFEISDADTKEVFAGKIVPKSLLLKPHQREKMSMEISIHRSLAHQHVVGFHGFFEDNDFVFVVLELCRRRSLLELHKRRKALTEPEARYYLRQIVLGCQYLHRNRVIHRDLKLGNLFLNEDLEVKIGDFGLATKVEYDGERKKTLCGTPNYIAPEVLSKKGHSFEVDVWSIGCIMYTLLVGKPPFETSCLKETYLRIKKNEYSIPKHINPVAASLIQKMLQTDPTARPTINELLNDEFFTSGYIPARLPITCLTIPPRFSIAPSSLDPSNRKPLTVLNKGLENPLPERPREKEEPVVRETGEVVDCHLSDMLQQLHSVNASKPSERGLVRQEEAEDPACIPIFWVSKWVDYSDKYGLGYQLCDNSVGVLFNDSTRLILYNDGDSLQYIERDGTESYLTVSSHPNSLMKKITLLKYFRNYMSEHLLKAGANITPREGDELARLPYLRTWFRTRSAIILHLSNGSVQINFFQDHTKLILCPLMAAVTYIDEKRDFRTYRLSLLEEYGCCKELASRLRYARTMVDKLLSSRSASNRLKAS
GLP1R cytotox – qHTS of GLP-1 Receptor Inverse Agonists: Cytotox Screen | HEK293 cAMP-luciferase reporter cells, luminescence, 24 h | Potency, µM (titrated, usually from 38.3 µM), inactives show at the top dose activity change, negative = inhibition, most hits filed as inhibitors | 410,000 tested, 0.13% active | AID 624418, 2012;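 note: loss of luciferase light is scored as toxicity; potency is the fitted concentration of half-maximal effect; % is set by controls: 0 for no effect and ±100 for the full control effect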
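1536-well qHTS counterscreen of the MLSMR; 200 cells/uL, 12 h pre-incubation, 23 nL cpd, 24 h at 37 deg C 5% CO2, luciferase detection reagent, 12 min RT, luminescence. Inhibition = undesired.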
GLP-1R inv ag – qHTS of GLP-1 Receptor Inverse Agonists (Inhibition Mode) | Glucagon-like peptide 1 receptor (Homo sapiens), P43220 | HEK293 GLP-1R CRE-luciferase, luminescence, 24 h; GLP-1R form is constitutively active | Potency, µM (top dose mostly 38.3 µM), without a hit: at the highest dose activity change, negative = inhibition, hits mostly inhibitors | 410,000 tested, 1.6% active | AID 624417, 2012; note: potency is the fitted concentration of half-maximal effect; % is set by controls: 0 for no effect and ±100 for the full control effect; nearly all actives have a fitted effect of over 55% in size
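Assay principle: reduced luminescence from a cAMP-responsive reporter in HEK293 cells co-expressing a constitutively active GLP-1R. Conditions: 24 hr compound incubation, 37 deg C, 5% CO2.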
* hit, by the source's call; ? = inconclusive; . = no result given; & = joins results of further samples; [ ] = another dose, or the depositor's remark. Unless noted, calls come from the whole dose curve; as a rule, active = well fitted curve in the direction sought with a large enough effect; inconclusive = small, poorly fitted or top-dose-only effect, or another doubt; inactive = no such curve, though single readings can be large; an effect the other way counts as inactive or inconclusive. An excerpt (hit frequency here may not be typical).

SMILES	PLK1 PBD inh	GLP-1R inv ag	PI5P4K alpha inh	GLP-1R agonist	GLP1R cytotox	IL2 activator	WRN inhibitor
CC(C)NC[C@H](O)COc1cccc2[nH]ccc12	-9.7%	15.2%	0.4	1.0%	-9.8%	0.9	-1.9%
CN1CCN(CCCN2c3ccccc3Sc3ccc(Cl)cc32)CC1	-2.2%&-4.9%	?	9.3&-1.5	4.5%&14.8%&1.6%	?	-0.7&0.2	-1.1%
COc1ccccc1N1CCN(CCN2C(=O)CC3(CCCC3)CC2=O)CC1	-4.5%	0.0%	-10.7	-7.1%	6.3%	-0.2	2.2%
OC(CCN1CCCCC1)(c1ccccc1)C1CCCCC1 (stereo not given)	-11.6%	-10.6%	3.0	-2.1%&7.4%	3.3%	-0.2	-6.2%
COc1cc(NS(=O)(=O)c2ccc(N)cc2)nc(OC)n1	-3.8%	37.6%[activator]	-0.8	-4.2%	0.0%	3.4	8.0%
CCCCC[C@H](O)/C=C/[C@@H]1[C@@H](C/C=C\CCCC(=O)O)[C@@H](O)C[C@H]1O	-10.5%	21.5%	-8.8	26.0%&14.3%	-1.4%	1.3	.
COc1ccccc1OC[C@H](O)CO	-8.4%	0.4%	7.0	-6.0%	-2.3%	0.1	-0.9%
CC1(C)[C@@H](OC(=O)CCC(=O)O)CC[C@@]2(C)[C@H]1CC[C@@]1(C)[C@H]2C(=O)C=C2[C@H]3C[C@](C)(C(=O)O)CC[C@]3(C)CC[C@@]21C	.	.	.	-1.6%[19.8 µM]	.	.	.
CCCc1nn(C)c2c(=O)[nH]c(-c3cc(S(=O)(=O)N4CCN(C)CC4)ccc3OCC)nc12	-5.2%	1.7%	-2.2	-4.7%&10.9%	-2.4%	0.4	3.8%
Cc1nc2n(c(=O)c1CCN1CCC(c3noc4cc(F)ccc34)CC1)CCCC2	1.9%	-0.3%	6.2	-2.2%&13.3%	0.1%	-0.3	10.0%
OCc1cccnc1	.	.	.	2.0%	.	.	.
C(=C\c1ccccc1)/CN1CCN(C(c2ccccc2)c2ccccc2)CC1	-3.4%	-28.5%	6.9	11.7%	4.6%	0.0	-8.7%
Cn1nnnc1SCC1=C(C(=O)O)N2C(=O)[C@@H](NC(=O)[C@H](O)c3ccccc3)[C@H]2SC1	13.4µM*	0.9%	?	-1.0%	-9.5%	0.6	25.1µM*
C[C@]12CC[C@@H]3c4ccc(O)cc4CC[C@H]3[C@@H]1CCC2=O	-0.8%	7.3%	7.5	6.8%	0.0%	-0.3	-1.1%
CCCCCCCCCCCCCCCCOP(=O)([O-])OCC[N+](C)(C)C	.	.	.	-2.1%	.	.	.
OC(c1cc(C(F)(F)F)nc2c(C(F)(F)F)cccc12)C1CCCCN1 (stereo not given)	3.8%	?	2.5	-24.2%	-4.5%	-0.7	-7.6%
Cc1cc(NC(=O)Nc2ccc3c(ccn3C)c2)sn1	-6.0%	-5.4%	-4.8	-0.2%	-0.7%	-0.1	-14.2%
C[C@H]1O[C@H]1P(=O)(O)O	-16.6%	-0.6%	-2.4	4.2%	-0.1%	1.5	-2.4%
COCCOC(=O)C1=C(C)NC(C)=C(C(=O)OC(C)C)C1c1cccc([N+](=O)[O-])c1 (stereo not given)	5.5%	?	1.7	8.4%&18.5%	-10.5%	0.4	2.1%
CCCc1nc(C)c2c(=O)[nH]c(-c3cc(S(=O)(=O)N4CCN(CC)CC4)ccc3OCC)nn12	1.9%	17.3%	7.3	-1.2%&-2.2%	1.3%	-0.4	-1.8%
NCCS	?	-11.9%	-19.6	-4.7%&9.9%&0.0%	-10.1%	0.0	17.1%
O=C(O)[C@H](O)[C@@H](O)C(=O)O	-0.9%	1.3%	5.7	-1.9%	-5.7%	0.6	6.8%
O=C(N[C@H](CO)[C@H](O)c1ccc([N+](=O)[O-])cc1)C(Cl)Cl	-4.0%	16.7%	4.6	-2.4%	7.8%	-0.3	3.9%
CCN(CC)C(=S)SSC(=S)N(CC)CC	0.844µM*	-26.5%	-77.5*	-7.7%	-12.0%	-0.5	13.0%
CC1(C)SC2C(NC(=O)C3(N)CCCCC3)C(=O)N2C1C(=O)O (stereo not given)	-18.8%	40.3%[activator]	-1.3	3.0%	3.2%	-0.1	-3.8%
CC(=O)O[C@]1(C(C)=O)CC[C@H]2[C@@H]3C=C(C)C4=CC(=O)CC[C@]4(C)[C@H]3CC[C@@]21C	-2.6%	-12.7%	-0.7	21.6%	-1.5%	-0.1	4.4%
Cn1nnnc1SCC1=C(C(=O)O)N2C(=O)[C@@H](NC(=O)[C@@H](O)c3ccccc3)[C@@H]2SC1	.	.	.	-2.7%[19.8 µM]	.	.	.
Cc1cc(/C=C\c2ccc3cc(N(C)C)ccc3[n+]2C)c(C)n1-c1ccccc1	?	2µM*	?	-0.3%	?	-0.8	?
C[C@]12C[C@H](O)[C@H]3[C@@H](CCC4=CC(=O)CC[C@@]43C)[C@@H]1CC[C@@H]2C(=O)CO	8.2%	3.9%	-4.5	-1.5%&-2.1%	0.1%	0.2	3.6%
C[C@@H]1CN(CCCn2c3ccccc3c3ccccc32)C[C@H](C)N1	.	.	.	9.3%	.	.	.
O=C1OCCN1/N=C/c1ccc([N+](=O)[O-])o1	-0.6%	5.1%	1.7	3.9%&20.1%	1.8%	-0.6	2.2%
Cc1cnc(C(=O)NCCc2ccc(S(=O)(=O)NC(=O)NC3CCCCC3)cc2)cn1	-1.0%	-8.7%	-5.1	-1.7%&8.9%	7.0%	-0.6	3.6%
CC(=O)OCC(=O)[C@@]1(O)CC[C@H]2[C@@H]3CCC4=CC(=O)C=C[C@]4(C)[C@H]3[C@@H](O)C[C@@]21C	-1.7%	-29.8%	-2.3	-3.8%	-3.9%	0.2	8.8%
NCCCC(N)(C(=O)O)C(F)F (stereo not given)	-6.9%	-0.8%	-0.1	-3.4%&-1.4%	-0.4%	0.5	2.6%
O=C1CN(/N=C/c2ccc([N+](=O)[O-])o2)C(=O)N1	-4.2%	6.9%	-0.7	7.0%&12.0%	-20.3%	-0.4	-1.8%
CN=C(NC#N)NCCSCc1csc(N=C(N)N)n1	.	.	.	1.5%	.	.	.
CN(C)CCN(Cc1cccs1)c1ccccn1	-9.0%	10.5%	2.3	-5.4%&-2.0%	6.4%	1.0	2.5%
NNc1nncc2ccccc12	.	.	.	-3.8%[19.8 µM]	.	.	.
C=CCOc1ccccc1OCC(O)CNC(C)C (stereo not given)	-4.3%	-11.1%	-5.4	-0.1%	5.1%	-0.4	-3.2%
Cc1cn[nH]c1	-8.2%	5.7%	-0.8	9.9%&11.0%	-4.2%	0.2	4.1%

Full records, quoted from the list:
Profile of CN(C)CCN(Cc1cccs1)c1ccccn1 → PLK1 PBD inh = -9.0%; GLP-1R inv ag = 10.5%; PI5P4K alpha inh = 2.3; GLP-1R agonist = -5.4%&-2.0%; GLP1R cytotox = 6.4%; IL2 activator = 1.0; WRN inhibitor = 2.5%
Profile of C[C@]12C[C@H](O)[C@H]3[C@@H](CCC4=CC(=O)CC[C@@]43C)[C@@H]1CC[C@@H]2C(=O)CO → PLK1 PBD inh = 8.2%; GLP-1R inv ag = 3.9%; PI5P4K alpha inh = -4.5; GLP-1R agonist = -1.5%&-2.1%; GLP1R cytotox = 0.1%; IL2 activator = 0.2; WRN inhibitor = 3.6%

Next structures follow.
SMILES	PLK1 PBD inh	GLP-1R inv ag	PI5P4K alpha inh	GLP-1R agonist	GLP1R cytotox	IL2 activator	WRN inhibitor
CC(C)(CO)[C@@H](O)C(=O)NCCC(=O)NCCSSCCNC(=O)CCNC(=O)[C@H](O)C(C)(C)CO	.	.	.	4.8%	.	.	.
CNC(=O)c1c(I)c(C(=O)NCC(=O)Nc2c(I)c(C(=O)O)c(I)c(C(=O)NCCO)c2I)c(I)c(N(C)C(C)=O)c1I	-4.4%	1.8%	-3.0	-0.5%&-0.3%	-1.2%	1.2	-2.5%
CCOC(=O)Nc1ccc2c(c1)N(C(=O)CN(C)C)c1ccccc1CC2	-3.8%	-15.4%	1.6	-4.1%	-3.1%	-0.2	0.0%
CN1CCC[C@H]1c1cccnc1	0.3%&-13.0%	10.2%&-15.1%	7.8&-1.4	-15.6%&25.3%	0.4%&-3.5%	0.8&0.2	10.3%&6.2%
CC1CC2C3CCC4=CC(=O)C=CC4(C)C3(F)C(O)CC2(C)C1(O)C(=O)CO (stereo not given)	-10.5%	-27.5%	0.4	-1.1%	6.3%	-0.9	-2.9%
Nc1[nH]c(=O)ncc1F	?	10.8%	-4.9	-5.0%	4.1%	0.4	5.7%
C#C[C@]1(O)CCC2C3CCC4=CC(=O)CC[C@@H]4C3CC[C@@]21C (stereo not given in full)	-2.4%	2.2%	2.7	10.8%	6.8%	-0.2	8.7%
COCCCC/C(=N\OCCN)c1ccc(C(F)(F)F)cc1	-6.3%&1.2%&2.8%&-11.9%&1.1%	?	14.1&20.8&20.8&11.4&18.0	?	1.3%&-2.2%&-8.9%&10.1%&-3.0%	-0.3&0.1&0.0&1.0&-0.1	-7.8%&-0.4%&-0.5%
CC(=O)Oc1cc(C(C)C)c(OCCN(C)C)cc1C	-24.4%	18.1%	-0.9	3.1%	23.7%	1.8	3.3%
CO/N=C(\C(=O)N[C@@H]1C(=O)N2C(C(=O)O)=C(COC(C)=O)CS[C@@H]12)c1csc(N)n1	.	.	.	1.7%	.	.	.
C[C@]12C=CC(=O)C=C1CC[C@@H]1[C@@H]2[C@@H](O)C[C@@]2(C)[C@H]1CC[C@]2(O)C(=O)CO	-2.8%	-20.0%	5.3	-3.8%	3.2%	-0.7	11.2%
CC(=O)O[C@H]1C[C@@]2(C)[C@@H](C[C@@H](O)[C@H]3[C@@]4(C)CC[C@@H](O)[C@@H](C)C4CC[C@@]32C)/C1=C(\CCC=C(C)C)C(=O)O (stereo not given in full)	-3.4%	-2.7%	3.4	15.8%	1.4%	-0.1	.
Nc1ccn([C@H]2CS[C@@H](CO)O2)c(=O)n1	-7.5%	-4.3%	1.0	-2.9%	6.4%	0.3	-11.5%
CC(=O)O[C@H]1C[C@@]2(C)[C@@H](C[C@@H](O)[C@H]3[C@@]4(C)CC[C@@H](O)[C@@H](C)[C@@H]4CC[C@@]32C)/C1=C(\CCC=C(C)C)C(=O)O	0.1%&-7.2%	-14.6%&2.5%	-0.6&4.5	-3.1%&9.4%	0.4%&5.6%	0.3&1.1	-3.1%&-3.5%
Cc1ccccc1C(OCCN(C)C)c1ccccc1 (stereo not given)	?	-13.4%&-9.2%	2.3&-19.8	-0.5%&0.9%&-0.1%&1.4%	-8.7%&-10.9%	-0.6&-0.4	3.8%
